# TRPML1 inh: blocks the human TRPML1 channel; Q9GZU1; TRPML1-inducible cells, Ca2+ dye fluorescence, FDSS; stronger effect = lower value; inhibition of EC80 agonist-evoked calcium signal; activity change, negative = inhibition, % (concentration not given with the values); 390,000 compounds, 0.02% hits; in the data active means activity change below about -50%; inconclusive means about -30% to -50%; inactive means above about -30%;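 note: stimulus is agonist 54-4 at its EC80 concentration; % is set by controls: 0 for no effect and ±100 for the full control effect; the text of the record puts the active cut at -80%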
# Target sequence (Q9GZU1 whole entry, looked up): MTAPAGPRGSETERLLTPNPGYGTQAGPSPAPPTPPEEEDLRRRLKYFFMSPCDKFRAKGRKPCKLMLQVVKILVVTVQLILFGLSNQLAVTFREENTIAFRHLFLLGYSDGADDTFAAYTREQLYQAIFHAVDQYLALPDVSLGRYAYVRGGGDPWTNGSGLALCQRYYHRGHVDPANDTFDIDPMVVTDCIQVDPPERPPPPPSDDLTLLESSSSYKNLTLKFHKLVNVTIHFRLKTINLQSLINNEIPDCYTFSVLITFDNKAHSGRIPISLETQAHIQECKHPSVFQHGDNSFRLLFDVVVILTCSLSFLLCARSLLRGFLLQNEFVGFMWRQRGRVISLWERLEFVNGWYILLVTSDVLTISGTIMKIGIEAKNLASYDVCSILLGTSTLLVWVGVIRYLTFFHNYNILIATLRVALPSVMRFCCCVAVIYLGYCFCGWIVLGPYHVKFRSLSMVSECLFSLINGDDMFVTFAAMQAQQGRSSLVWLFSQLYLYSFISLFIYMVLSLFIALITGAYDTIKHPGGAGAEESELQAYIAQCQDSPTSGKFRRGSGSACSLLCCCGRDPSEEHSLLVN
#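 Calcium fluorescence in TRPML1-DL cells induced overnight with Tet: a 110 s read after compound pin addition, then a 110 s antagonist read after challenge with 54-4 at 4 uM final (EC80).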
# gsp antagonist: gsp mutant antagonism; gsp-mutant cells, cAMP HTRF, 30 min; control for the full effect not named in the record; Potency, µM (top dose mostly 76.9 µM), for inactives: at the highest dose activity change, negative = inhibition, most hits filed as inhibitors; 340,000 compounds, 0.4% hits; active = falling curve of any shape with a large fitted effect; inconclusive = falling curve, mostly with a smaller effect; inactive = flat or rising curve; cell line not stated here;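 note: intracellular cAMP measured with PDE inhibitor Ro 20-1724 present during compound exposure; potency is the fitted concentration of half-maximal effect; % is set by controls: 0 for no effect and ±100 for the full control effect; nearly all actives have a fitted effect of over 65% in size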
#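 Cells, 2000/well, grown 16–24 h in DMEM 10% FBS with 0.5 mg/ml G418, then compounds plus […] (300 uM addition stock), 30 min at 37C. cAMP read by HTRF (cAMP-d2 and anti-cAMP antibody-K in lysis buffer) after 30 min RT.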
# gsp ag: agonists of gsp mutant (McCune-Albright syndrome) | gsp mutant cells, cAMP HTRF, 30 min; control for the full effect not named in the record | Potency, µM (top dose mostly 76.9 µM), inactives show at the highest dose activation (cAMP increase), hits mostly activators | 340,000 compounds, 0.13% hits | AID 624287; active = well fitted activation curve with a large enough effect; inconclusive = small, poorly fitted or top-dose-only effect, or another doubt; inactive = no such curve, though single readings can be large or run the other way; cell line not stated here;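 note: phosphodiesterase inhibitor Ro 20-1724 added with compounds to block cAMP breakdown; potency is the fitted concentration of half-maximal effect; nearly all actives have a fitted effect of over 60% in size; about a fifth of the inactives were tested at one dose only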
#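 Cells in DMEM/10% FBS with G418 were pretreated with compounds in DMSO plus […] (300 uM stock) for 30 min at 37C. cAMP was measured by HTRF (cAMP-d2 plus anti-cAMP antibody-K) after 30 min at room temperature.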
# TRPML1 agonist: activates the human TRPML1 channel; Q9GZU1; TRPML1-expressing cells, Ca2+ dye fluorescence, FDSS; host cell line not named in the record; reference of the full effect not given here; activation, % (concentration not given with the values); 410,000 compounds, 0.12% hits; AID 624414; in the data active = activation above about 50%; inconclusive = about 30% to 50%; inactive = below about 30%; note: 0% is about no effect; the text of the record puts the active cut at 80%
#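 Cells: TRPML1-DL, 1X Tet inducer, ~16 h at 37 degrees C/5% CO2. Dye: ABD Ca8 no-wash + quencher, 45-90 min RT. Read: 10 s baseline, compound add, 110 s agonist phase; 54-4 EC80 (4uM final), 110 s antagonist phase.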
# Menin-MLL FL inh: menin-MLL binding inhibition, fluorescein peptide | 290,000 tested, under 10 active | Fluorescence polarization, fluorescein-MLL peptide displacement from menin | AID 1766 | FP activity change, % at 61.4 µM; inconclusive = falling polarisation curve, or a change in total fluorescence; inactive = total fluorescence flat and polarisation flat or rising; no compound was filed as active; the % refers to the polarisation; negative = inhibition;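 note: % of control where 0% means no effect; inhibitors lower the polarisation; unlabelled MLL peptide was the positive control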
# ClpP mod: qHTS Assay for Activators of ClpP | 340,000 compounds, 1.9% hits | Potency, µM (series often up to 57.5 µM), without a hit: at the highest dose activity change, negative = active | purified B. subtilis ClpP, FRET peptide cleavage, 20 min | AID 651965, 2013 | ATP-dependent Clp protease proteolytic subunit (Bacillus subtilis (strain 168)), P80244; active = well fitted falling curve with a large enough effect; inconclusive = small, poorly fitted or top-dose-only effect; inactive = no such curve, though single readings can be large or run the other way; note: potency is the fitted concentration of half-maximal effect; the source files actives as falling curves though it sought activators and does not explain the sign; nearly all actives have a fitted effect of over 65% in size; many hits overshoot -100%
# Target sequence (P80244 whole entry, looked up): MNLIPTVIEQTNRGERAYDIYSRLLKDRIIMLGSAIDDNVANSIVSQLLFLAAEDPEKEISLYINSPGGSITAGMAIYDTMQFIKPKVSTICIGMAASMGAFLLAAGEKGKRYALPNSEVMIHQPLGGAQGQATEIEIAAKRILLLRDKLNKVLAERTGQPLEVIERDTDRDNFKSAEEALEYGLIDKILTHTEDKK
#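 Buffer: 100 mM Tris/HCl pH8, 100 mM KCl, 0.05% low protease BSA, 2.5% glycerol, 0.01% Tween-20. ClpP 10 microg/mL final; 20 min RT; delta FRET normalized to ADEP and DMSO controls.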
# Numbers without * were called inactive; u = inconclusive; x = no result given; & = joins results of further samples; [ ] = dose if it differs, or a comment.
Molecule | TRPML1 inh | TRPML1 agonist | gsp ag | gsp antagonist | ClpP mod | Menin-MLL FL inh
COC(=O)c1sc(N)c(C(=O)OC)c1CSc1nnc(-c2ccccc2Cl)n1C | -26 | -0.4 | -1% | 4% | -1.7% | 5.9
O=C(c1ccco1)N(CC1CCCO1)c1nc(-c2ccccc2)cs1 (configuration not stated) | 55 | 1.0 | 0% | u | -3.0% | 1.0
CCc1ccccc1OCc1nc2ccc(S(=O)(=O)N3CCOCC3)cc2[nH]1 | 9 | 1.2 | -41%[inhibitor] | 8% | -8.0% | -0.2
COc1cc(/C=N/NC(=O)c2cccnc2)ccc1OS(=O)(=O)c1ccc(C)cc1 | 31 | -0.2 | -4%[15.4 µM] | u | x | 0.5
COc1ccc(NC(=O)c2sc3nc(-c4cccnc4)ccc3c2N)cc1OC | -13 | 0.0 | -15%[15.4 µM] | 1% | x | u
COc1ccc(OC)c(S(=O)(=O)Nc2cc(C)on2)c1 | 29 | 2.8 | 8% | 6% | -0.9% | x
CN(C(=O)CSc1cn(CC(=O)N2CCCC2)c2ccccc12)c1ccccc1 | -13 | 0.9 | x | x | 0.8% | x
CCOC(=O)C1CCN(Cc2ccc(OCc3ccccc3)cc2)CC1 | -6 | 0.3 | u | 7% | 0.3% | -0.8
CCOC(=O)COc1ccc(C(=O)NC2CCCCC2)cc1 | -5 | 0.4 | 14% | -5% | 0.3% | 6.8
COc1ccc(CN2CCN(c3ncnc4sc5c(c34)CC(C)CC5)CC2)cc1F (configuration not stated) | 2 | -0.8 | x | x | -1.5% | x
Cc1ccc(S(=O)(=O)NCC(=O)NCC(=O)OCc2c(F)cccc2Cl)cc1 | 19 | -0.1 | -92%[inhibitor] | -21% | x | 0.0
COC(=O)Cn1c(C(F)(F)F)nc2ccccc21 | -12 | 0.7 | -6%[15.4 µM] | 8% | -2.9% | 4.0
COc1ccc2c(c1)c1nc3ccccc3nc1n2CC(=O)OC(C)C | 7 | 0.8 | -9% | 4% | -0.1% | -19
Cc1cccc(C(C#N)c2ccc(Cl)nn2)c1 (configuration not stated) | 12 | 0.2 | -3% | -5% | x | 1.8
COc1ccc([C@H]2CC(=O)C=C(c3cc(Cl)ccc3C)C2)cc1 | 8 | 2.4 | -2% | -3% | -1.2% | x
CCCCC(O)(C(NC=O)C(=O)OC)C(F)(F)F (configuration not stated) | -1 | -0.3 | 22% | 4% | 1.8% | -1.8
CC(C)Cc1nnc(NC(=O)Cc2cccs2)s1 | -2 | -0.3 | 4%[15.4 µM] | -10% | x | 3.6
O=C(O)c1ccccc1/C=N/Nc1ccc(S(=O)(=O)Nc2ccc(Cl)cc2)cc1[N+](=O)[O-] | 9 | 1.9 | -15% | 5% | 2.4% | x
CCN(C(=O)CSc1nc(C2CC2)n(-c2ccccc2)n1)C1CCS(=O)(=O)C1 (configuration not stated) | -8 | -0.2 | u | -19% | 1.0% | x
O=C(COC(=O)c1cc(S(=O)(=O)N2CCOCC2)ccc1F)NCc1ccco1 | 2 | -0.6 | -2%[15.4 µM] | -5% | -0.1% | x
CN(C)/C=C/c1oc2ccc(O)cc2c1[N+](=O)[O-] | -6 | -0.1 | 21%[15.4 µM] | 28µM* | x | 15
CCOc1ccc(CCNC(=O)C2COc3ccccc3C2)cc1OCC (configuration not stated) | -15 | -1.0 | x | x | -3.4% | x
CCn1c(CNc2cccc(Cl)c2)nnc1SCc1ccccc1 | 38 | 1.1 | -33%[inhibitor] | -4% | -0.8% | -0.8
CCOC(=O)Cn1nc(C(F)F)c(Br)c1C | -5 | -0.5 | 16%[15.4 µM] | -7% | x | -1.0

# Among those listed so far, these have a furan ring, fused or not.
Molecule | TRPML1 inh | TRPML1 agonist | gsp ag | gsp antagonist | ClpP mod | Menin-MLL FL inh
O=C(c1ccco1)N(CC1CCCO1)c1nc(-c2ccccc2)cs1 (configuration not stated) | 55 | 1.0 | 0% | u | -3.0% | 1.0
O=C(COC(=O)c1cc(S(=O)(=O)N2CCOCC2)ccc1F)NCc1ccco1 | 2 | -0.6 | -2%[15.4 µM] | -5% | -0.1% | x
CN(C)/C=C/c1oc2ccc(O)cc2c1[N+](=O)[O-] | -6 | -0.1 | 21%[15.4 µM] | 28µM* | x | 15

# Further records.
Molecule | TRPML1 inh | TRPML1 agonist | gsp ag | gsp antagonist | ClpP mod | Menin-MLL FL inh
CC(=O)[C@H]1CC[C@H]2[C@@H]3CCC4=CC(=O)CC[C@]4(C)[C@H]3CC[C@]12C | 18&58 | 0.7&2.7 | x | -4%&-8% | -1.6%&1.0% | 1.6&-5.8&5.7&-0.3
O=C(NC1CCN(Cc2ccccc2)CC1)c1ccc(Cn2c(=O)c3ccccc3n(Cc3ccccc3)c2=O)cc1 | -1 | 2.8 | x | x | -8.3% | x
Cc1ccc(C(=O)OC(C(=O)O)C(OC(=O)c2ccc(C)cc2)C(=O)O)cc1 (configuration not stated) | -10 | 1.3 | 14% | -6% | 0.3% | x
COc1ccc(CCN2CCCn3c2nc2c3c(=O)n(CC(N)=O)c(=O)n2C)cc1OC | 6 | -0.7 | 21%[15.4 µM] | 6% | 0.1% | -14
CN(CCC1CCCCO1)Cc1cn(C)nc1-c1ccc2c(c1)OCCO2 (configuration not stated) | 1 | -0.6 | -36%[inhibitor] | 1% | -0.9% | 1.7
COc1cccc(N2CCN(C(=O)c3cccc(S(=O)(=O)N4CCCC4)c3)CC2)c1 | 2 | -0.1 | -23% | x | -0.2% | x
CCC(C)C(NC(=O)OC(C)(C)C)C(=O)NC(C(=O)N1CCCC1C(N)=O)C(C)CC (configuration not stated) | -13 | -0.1 | -1% | -7% | -1.3% | 2.8
CCC1=NN(C(=O)c2ccc(Cl)cc2)C(O)(c2ccc(C)cc2)C1 (configuration not stated) | 2 | 0.1 | -16% | 5% | x | 5.4
COc1ncccc1C(=O)NC1CCCc2c1cnn2-c1cc(C)cc(C)c1 (configuration not stated) | -10 | -0.1 | -104%[inhibitor] | -23% | -1.2% | 3.0
COc1ccc(N2CCN(C(=O)NC34CC5CC(CC(C5)C3)C4)CC2)cc1 | 1 | 0.2 | -4% | 5% | -7.2% | -7.8
O=S(c1ccccc1O)S(=O)c1ccccc1O (configuration not stated) | 22 | -0.1 | -17% | 8% | x | x
COc1cccc(NC(=O)COc2coc(CN3CCc4ccccc4C3)cc2=O)c1 | 2 | 0.4 | 9%[15.4 µM] | 10% | u | x
CC(Sc1nc2ccccc2c(=O)n1CC1CCCO1)C(=O)N(C)Cc1ccccc1 (configuration not stated) | -10 | 2.0 | -60%[inhibitor] | -16% | -1.5% | x
COCc1c(Br)c(C)nc2sc3c(=O)[nH]nnc3c12 | 22 | 1.5 | 63% | -12% | x | -0.7
Cc1cnc(NC(=O)Nc2ccc(Cl)cc2)s1 | -12 | 1.7 | 27% | 5% | -3.7% | -0.1
COc1ccc(-c2cc(C(=O)Oc3ccc(Br)cc3)c3ccccc3n2)cc1 | 13 | -0.2 | x | x | -21% | x
O=C(Nc1ccccc1)C1COc2ccccc2O1 (configuration not stated) | -3 | -1.2 | 0%[15.4 µM] | -7% | -1.5% | 1.6
CC(C)Cn1c(=O)c2ccccc2n2c(CCC(=O)Nc3ccc(F)c(F)c3)nnc12 | 19 | -0.4 | x | x | -4.4% | x
COc1cccc(C(=O)C2CCCN(CC3=Cc4cc(OC)ccc4OC3)C2)c1 (configuration not stated) | -15 | -0.1 | -6%[15.4 µM] | -5% | x | -0.3
O=C(Cn1nnc2ccccc21)c1ccc([N+](=O)[O-])cc1 | 4 | -0.7 | 1% | 0% | 2.1% | 1.6
O=C(NCc1ccccc1)C1CCCN(S(=O)(=O)c2cccc3nonc23)C1 (configuration not stated) | -29 | -0.1 | -7% | -10% | 0.3% | 1.6
COc1ccccc1-c1ccc(=O)n(CC(=O)NCc2cccs2)n1 | -10 | 0.0 | -4%[15.4 µM] | 1% | x | 1.6
CCOC(=O)C1CCN(C(=O)c2ccc(C)c(NC(=O)c3nsc4ccccc34)c2)CC1 | -21 | -0.3 | x | x | -0.7% | x
O=C(NCc1cccs1)c1ccc2nc([C@@H]3O[C@H](CO)[C@H](O)[C@H](O)[C@H]3O)[nH]c2c1 | -3 | -0.3 | x | x | 0.2% | x
CCOC(=O)C(Nc1ccc2ccccc2c1)C(=O)OCC | 14 | 1.2 | 5% | 4% | u | 5.5
CC(CCc1ccccc1)NC(=O)C(=O)c1c[nH]c2ccccc12 (configuration not stated) | -21 | 3.2 | 25% | -11% | -3.5% | x
CCOc1ccc2oc(C(=O)NCc3nc4ccccc4[nH]3)c(C)c2c1 | -4 | -0.2 | -13% | 6% | 35µM* | 1.2
O=C(Nc1ccc(S(=O)(=O)NCC2CCCO2)cc1)c1ccccc1 (configuration not stated) | -6 | 0.3 | -12%[15.4 µM] | 10% | x | 1.9
COc1cc(/C=N/NC(=O)c2nnn(-c3nonc3N)c2C)ccc1OCc1ccc(Cl)cc1 | -7 | -0.3 | u | x | 3.2% | x
CC(=O)Nc1ccc(S(=O)(=O)NC2(C(F)(F)F)NC(=O)N(CC(C)C)C2=O)cc1 (configuration not stated) | -7 | -0.3 | 0%[15.4 µM] | x | x | 0.7
O=C1C(Cl)=C(NCc2ccco2)C(=O)c2ccccc21 | 32 | 1.1 | -2% | -6% | 3.5% | x
COc1cccc(CNC(=O)CN2C(=O)CC(c3ccccc3)=Nc3ccccc32)c1 | 10 | 0.8 | -29% | 1% | -0.6% | 1.4
COc1ccc(CCNC(=O)Cn2c(=O)nc(-c3ccccc3)c3ccccc32)cc1OC | -20 | 2.9 | x | x | 1.2% | x
CC(C)CNC(=O)NC(=O)CSc1nc2ccccc2n1CC(C)C | 25 | 4.0 | 35% | -2% | -7.8% | -0.7
CC(C)c1ccc(NC2CCCN(C(=O)c3cccc(N4CCNC4=O)c3)C2)cc1 (configuration not stated) | 2 | -0.4 | -12% | -7% | -1.6% | 4.8
COC(=O)[C@H](Cc1ccccc1)NC(=O)NCc1ccc(S(N)(=O)=O)cc1 | -7 | 0.1 | u | 9% | -1.9% | -0.6
COc1ccc2nc(/N=C(\N)NC(=O)C(C)(C)C)nc(C)c2c1 | 0 | 1.9 | 10% | 1% | 32µM* | 0.1
COc1ccccc1C1/C(=C(\O)c2ccc3c(c2)OCCO3)C(=O)C(=O)N1CCCn1ccnc1 (configuration not stated) | 23 | 7.1 | u | 19% | -0.7% | -1.6
COc1ccc(-c2nnc(SC(C)C(=O)O)o2)cc1 (configuration not stated) | 19 | 5.2 | x | x | -2.3% | x
